T cruzi repl: inhibitors of intracellular T. cruzi growth, primary screen, luminescence, NIH3T3 host cells; T. cruzi beta-gal in NIH3T3, 90 h; inhibition, % (no concentration beside the values); 300,000 tested, 1.4% active;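 active = mean inhibition across valid replicates above about 55%, limit read from the data; inconclusive = mean below that limit but half or more replicates reach it; inactive = mean below it, under half of replicates reach it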;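 note: signal also drops with host cell toxicity which is not excluded here; 0% = plate median of DMSO wells and 100% = zero luminescence signal; higher percent means less beta-gal luminescence so fewer parasites; stock transfer was 50 nL into about 50 µL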
AF4-AF9 inh: inhibitors of AF4 peptide binding to AF9, primary screen, biochemical, AlphaScreen, biotin-AF4 peptide, FLAG-AF9, single point; inhibition, % at 10 µM; 350,000 tested, 0.47% active;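 active = every replicate reaching a set inhibition limit, whatever the replicate mean, cut at about 25% in these data; inconclusive = mean inhibition reaches that limit but some replicates miss it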;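 note: 0% = plate neutral control median and 100% = total signal loss; the record names both 10 and 1 µM as test concentration; the first replicate is given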
Target sequence (P42568 whole entry, looked up): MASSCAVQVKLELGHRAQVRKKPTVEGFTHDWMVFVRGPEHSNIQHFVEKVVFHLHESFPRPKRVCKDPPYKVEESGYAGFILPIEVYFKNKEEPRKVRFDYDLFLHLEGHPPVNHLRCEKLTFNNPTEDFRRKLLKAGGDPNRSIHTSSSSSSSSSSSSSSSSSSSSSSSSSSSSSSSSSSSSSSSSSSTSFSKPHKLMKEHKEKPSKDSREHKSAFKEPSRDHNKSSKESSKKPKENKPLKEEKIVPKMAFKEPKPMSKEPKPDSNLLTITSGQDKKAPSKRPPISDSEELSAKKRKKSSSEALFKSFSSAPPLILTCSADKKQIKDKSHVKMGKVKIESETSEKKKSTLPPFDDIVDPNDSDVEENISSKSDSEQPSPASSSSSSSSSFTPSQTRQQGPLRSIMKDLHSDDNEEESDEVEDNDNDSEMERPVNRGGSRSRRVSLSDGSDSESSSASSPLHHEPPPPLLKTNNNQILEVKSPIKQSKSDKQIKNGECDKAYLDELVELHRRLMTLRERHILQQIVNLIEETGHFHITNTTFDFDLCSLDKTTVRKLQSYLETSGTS
Vif TR-FRET: inhibitors of Vif binding to APOBEC3G peptide, primary screen, biochemical, TR-FRET, GST-Vif 1-94, biotin-A3G peptide, dose response retest (AID 1117319); Virion infectivity factor (Human immunodeficiency virus type 1 group M subtype B (isolate …; TR-FRET GST-Vif / biotin-A3G peptide binding; higher % means a stronger effect; test concentration not given here; strong numbers were not always called active; inhibition, %; hits with a dose series show IC50 in µM; 260,000 tested, 0.57% active;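 active = above the screen mean plus three standard deviations and confirmed in dose response; inconclusive = results disagree or hit not tested in dose response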;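 note: Vif residues 1-94 fused to GST binding biotinylated APOBEC3G peptide 110-148; 0% = full assay without inhibitor and 100% = GST in place of GST-Vif; retest series ran down from 100 µM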
Bfl-1 A1 inh: caspase 3/7 activation in MEF A1-2A-BIM cells, primary screen, A1 inhibitor project, cell-based, luminescence, HTS; Caspase-Glo 3/7 luminescence, 3 h; percent of clofoctol response, vehicle zero; caspase activation, % (no concentration beside the values); 330,000 tested, 0.066% active; AID 2462, 2010;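 active = over half of replicate activation scores above 10%, or exactly half above 10 with the replicate mean above 10; inconclusive = replicate mean below 10 yet half the replicates above 10; inactive = over half of replicates below 10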;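 note: wells of about 30 µL received 50 nL stock; many hits fall short of the cut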
Beta apoptosis: inhibitors of cytokine-induced beta cell apoptosis, primary screen, luminescence | protection from apoptosis, % (no concentration beside the values) | AID 435005, 2010 | INS-1E cytokine-induced death, ATP luminescence, 48 h; percent of positive-control rescue, neutral wells zero | 300,000 tested, 0.8% active;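 active = all replicates at 75% or more, or half of them and the mean; inconclusive = half reach 75% but not the mean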;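 note: 0% = cytokine-treated negative control wells and 100% = positive control rescue; higher means more ATP so stronger rescue from cytokine killing; wells of about 40 µL received 100 nL stock; the first replicate is given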
RanGTP-Imp inh: inhibitors of RanGTP-importin-beta interaction, primary screen, biochemical, FRET, CFP-Ran, YFP-importin-beta, homogeneous; AID 2216, 2009; 300,000 tested, 1.1% active; inhibition, % (concentration not given with the values); Ran GTPase (GTP-bound) - importin-beta complex; cell-free CFP-Ran/YFP-importin-beta FRET ratio;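 active = most replicates above 15%; inconclusive = exactly half above 15%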;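 note: 0% = DMSO wells and 100% = Ran loaded with GDP instead of GTP; wells of about 40 µL received 100 nL stock; the first replicate is given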
Ecoli rRNA inh: reduced GFP signal of wild-type E. coli, primary screen, bacterial rRNA inhibitor project, GFP/RFP fluorescence, OD600, single point; AID 720706, 2013; 350,000 tested, 1.6% active; E. coli WT GFP vs humanized-ribosome RFP mutants, 24 h; active compounds read low; DMSO median 0, no signal -100; GFP signal change (wild-type ribosome), % (concentration not given with the values);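 active = significant combined selectivity score with lowered wild-type GFP, culture density cut under 30%, mutant RFP and density less affected; inactive = any of these conditions unmet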; note: one replicate is shown; some compounds called inactive have numbers as strong as hits
Calb FLC: C. albicans growth inhibition with fluconazole, primary screen, CaCi-2 strain, Alamar Blue fluorescence; C. albicans CaCi-2 (fluconazole-resistant clinical isolate) + fluconazole, 48 h; growth inhibition, % (test concentration not listed); 300,000 tested, 0.57% active; AID 1979, 2009;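 active = most replicates above 75%; inconclusive = exactly half above 75%; inactive = most below 75%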;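 note: all wells also contain fluconazole at 8 µg/ml as a sub-toxic cotreatment; 0% = median of DMSO wells and 100% = median of geldanamycin control wells; wells of about 8 µL received 7.5 nL stock; the first replicate is given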
Ecoli rRNA inh OD600: further read-out of Ecoli rRNA inh, marked with its call; OD600 change, %; measured here: OD600 growth;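 optical density of the mix in the first replicate; 0 = DMSO median and -100 = no signal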
Ecoli rRNA inh RFP: further read-out of Ecoli rRNA inh, marked with its call; RFP signal change, %; measured here: RFP humanized mutant strains;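 first replicate; 0 = DMSO median and -100 = no signal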
* = called active by the depositor; ? = inconclusive; . = no result given; & = joins results of further samples. These rows are one share of the data. The share of hits here may be higher or lower than overall.

SMILES	T cruzi repl	AF4-AF9 inh	Vif TR-FRET	Bfl-1 A1 inh	Beta apoptosis	RanGTP-Imp inh	Ecoli rRNA inh	Ecoli rRNA inh OD600	Ecoli rRNA inh RFP	Calb FLC
CC(=O)c1c(C)[nH]c(C(=O)COC(=O)C2(C)CC2(Cl)Cl)c1C (stereo unspecified)	.	-1.5	.	-2.7	5	.	-30	-33	-3.8	.
CCCCCOc1ccc(CSc2ncn[nH]2)cc1	-3	.	30%	-0.4	-4	2.0	.	.	.	-7
CCN(CC)S(=O)(=O)c1ccc(Cl)c(C(=O)NCC2CCCO2)c1 (stereo unspecified)	6	.	-1%	0.5	.	9.9	.	.	.	-1
COc1ccc(CSc2nnc(C)n2N)cc1Br	-11	.	8%	0.8	7	4.0	.	.	.	.
N#Cc1c2c(c(Nc3ccccc3)n3c1nc1ccccc13)CCC2	12	.	3%	0.1	4	77*	.	.	.	-2
Cc1ccc2[nH]c(O)c(N=NC(=O)C(C)n3cnc4ccccc4c3=O)c2c1 (stereo unspecified)	-9	7.1	2%	0.3	-3	2.5	8	1	-2.7	6
O=C(NCCCCCc1nc2ccccc2[nH]1)c1ccccc1Cl	13	-7.6	-10%	-0.3	22	1.5	-1	8	-0.4	-2
CN(C)c1nc(SCC(=O)Nc2ccc(Cl)c(Cl)c2)nc(N2CCOCC2)n1	7	-8.0	.	0.6	-10	-1.3	-1	1	-1.1	9
O=C(Nc1ccc(F)cc1)C1COc2ccccc2O1 (stereo unspecified)	-4	-0.5	4%	0.1	-2	-3.1	19	5	1.0	-8
Nc1nnc(-c2ccc(Cl)c(Cl)c2)s1	-3	-1.1	-12%	1.2	-7	-1.5	-29	-35	-6.9	?
CCn1c(=O)cc(OCC(=O)N2CCN(c3cccc(C(F)(F)F)c3)CC2)c2ccccc21	39	.	-8%&-2%	-0.5	7	30*	.	.	.	-7
CC(=O)c1ccc(S(=O)(=O)N2CCCc3ccccc32)cc1	8	-12	-4%	0.0	.	1.3	-13	-18	0.0	-5
Cc1ccc2c(COC(=O)C3CC(=O)N(c4ccc5c(c4)OCCO5)C3)cc(=O)oc2c1 (stereo unspecified)	.	-1.0	3%	-0.3	-1	.	-9	-17	1.6	.
Cc1cc(C)c(S(=O)(=O)Nc2ccc(C(N)=O)cc2)c(C)c1	1	-2.9	?	1.0	1	1.2	13	8	-1.0	19
Cc1csc(SCC(=O)Nc2cccc(C)c2C)n1	.	-3.0	-7%	0.4	-1	.	3	4	1.7	.
COCCN(C(=O)CSc1nnc(-c2cccc(F)c2)n1N)c1c(N)n(CC(C)C)c(=O)[nH]c1=O	-7	-1.8	.	-0.1	-9	2.4	2	9	-3.5	-1
O=C(CCCc1nc(-c2ccccc2Cl)no1)NCc1cccnc1	4	.	-5%	0.0	34	-1.7	.	.	.	-2
O=C(NCc1ccco1)NC12CC3CC(CC(C3)C1)C2	11	.	10%	0.0	7	1.7	.	.	.	-3
COCC(C)NC(=O)C(C)Oc1ccccc1 (stereo unspecified)	-2	.	-1%	0.7	.	2.0	.	.	.	2
Cc1ccc([C@H]2C(C(=O)O)=CC[C@@H](c3cccs3)N2S(=O)(=O)c2ccc(C)cc2)cc1	.	-5.3	-6%	-0.7	-9	.	-40	-39	-8.7	.

Other structures follow.
SMILES	T cruzi repl	AF4-AF9 inh	Vif TR-FRET	Bfl-1 A1 inh	Beta apoptosis	RanGTP-Imp inh	Ecoli rRNA inh	Ecoli rRNA inh OD600	Ecoli rRNA inh RFP	Calb FLC
COc1cc(OC)cc(-c2c(-c3cccs3)c3cc(-c4ccc(N(C)C)nc4)ccc3n2C)c1	.	-22	.	-0.1	9	.	8	4	-3.7	.
Cc1ccc(NC(=O)c2ccc(S(=O)(=O)N3CCOCC3)cc2)nc1	-4	.	5%	2.1	-20	1.3	.	.	.	-6
COc1cccc(NC(=O)CN(C)C(=O)c2cccc(NS(=O)(=O)c3ccccc3)c2)c1	.	-0.6	-6%	1.1	-7	.	-6	-7	1.6	.
Cc1cccc(N(C(=O)CNC(=O)c2ccco2)C(C(=O)NC2CCCCC2)c2cccnc2)c1 (stereo unspecified)	8	-16	.	0.1	1	5.4	-2	9	0.5	4
CC1CCN(CC(O)COc2cccc(F)c2)CC1 (stereo unspecified)	-13	-10	2%	0.1	1	-2.6	1	3	-6.0	-6
Cc1cc(=O)oc2cc(OCc3ccc(C(=O)N4CCN(c5ccc([N+](=O)[O-])cc5)CC4)cc3)ccc12	21	-1.0	-10%	.	.	3.5	1	-5	1.3	4
COc1ccc(NC(=O)C2CCCN2C(=O)OCc2ccccc2)c(OC)c1 (stereo unspecified)	9	.	3%	-0.2	-17	?	.	.	.	1
CCN(CC)CCn1c2c(c(SCC(=O)Nc3nc4ccccc4s3)nc1=O)CCCC2	-5	-9.3	-1%	0.3	-9	0.1	-9	-10	4.4	1
O=C(Nc1ccc2c(c1)C(=O)NC2=O)c1ccc2ncsc2c1	3	-0.3	-9%	-0.3	0	4.7	15	13	5.3	-7
Cc1cc(N)n(Cc2ccc(Cl)cc2)n1	-5	3.4	-2%	1.5	-4	-5.1	-37	-44	-8.9	-27
O=C(Cc1ccccc1)NNc1c2ccccc2nc2ccccc12	12	1.9	-9%	-0.7	4	34*	-23	-53	5.9	6
CC(C)N1CCC(n2nccc2NC(=O)c2ccc3c(c2)OCO3)CC1	0	2.1	-4%	0.1	-8	0.4	-6	4	-6.5	-8
CN(C)CCCNc1ncc(C(F)(F)F)cc1Cl	63*	0.1	0%	-0.3	2	3.2	13	20	0.8	-1
Cc1[nH]c(=O)c(C#N)c(C)c1Cl	.	3.3	-5%	-0.9	-4	-3.8	0	0	-1.6	6
CCC(CC)NC(=O)c1cc(OC)c(OC)cc1[N+](=O)[O-]	2	.	1%	-0.3	-2	4.0	.	.	.	-21
C=CCNC(=O)CN1CCC(n2c(C)nc3cc(C(F)(F)F)ccc32)CC1	3	.	?	0.7	-4	?	.	.	.	-1
CCN(Cc1ccccc1)S(=O)(=O)c1cc(C(=O)O)ccc1OC	-4	-1.1	-7%	0.3	-4	-1.1	4	-2	2.4	25
COc1cccc(C2NC(=O)NC(C)=C2C(=O)Nc2ccc(C)cc2)c1 (stereo unspecified)	-11	0.3	-2%	0.2	-6	3.3	0	2	-0.2	2
O=C(O)CCCNC(=O)CCCn1nnc2ccccc2c1=O	2	-21	10%	-0.6	8	-0.3	9	5	2.7	-4
O=C(NCC1CCCO1)C(=Cc1cccc([N+](=O)[O-])c1)C(=O)NCC1CCCO1 (stereo unspecified)	-48	-2.8	.	0.0	-23	.	14	15	1.0	-17

Later entries.
SMILES	T cruzi repl	AF4-AF9 inh	Vif TR-FRET	Bfl-1 A1 inh	Beta apoptosis	RanGTP-Imp inh	Ecoli rRNA inh	Ecoli rRNA inh OD600	Ecoli rRNA inh RFP	Calb FLC
Nc1cccc2nsnc12	0	-0.5	19%	-1.0	-8	3.0	0	1	2.9	29
CCOCCCNC(=O)C(c1ccc(Cl)cc1)N1CCC2(CC1)OCCO2 (stereo unspecified)	-12	.	19%	-0.2	0	0.4	.	.	.	9
C/C=C1\COC(C(=O)NCCCN2CCCC2=O)(C(F)(F)F)C=C1C=C(C)C (stereo unspecified)	-1	-6.0	.	-0.1	4	2.8	4	-1	8.1	7
Cc1c(C(=O)OCC(=O)NCCN2C(=O)CSC2=O)cccc1[N+](=O)[O-]	.	1.1	.	1.2	3	.	5	11	-2.3	.
CCCC1C(C(=O)OCC)=C(C)NC(C)=C1C(=O)OCC	17	.	-4%	-0.1	-5	5.6	.	.	.	23
CCC/C(O)=C1\C(=O)CCCC1=NCCCCCC(=O)O	-24	.	-2%	0.1	-2	4.6	.	.	.	-6
CN(Cc1ccccc1)c1ccc([N+](=O)[O-])cc1C(=O)O	-9	-1.7	0%	0.4	6	-0.8	9	-1	-2.3	0
O=C(Nc1ccc(S(=O)(=O)N2CCOCC2)cc1)c1cccc(Br)c1	-9	-0.7	-5%	0.7	3	3.9	1	2	-1.0	3
Cc1cc(C)nc(N2CCCC(CCC(=O)NCc3ccc(F)c(F)c3)C2)n1 (stereo unspecified)	7	-1.5	-12%	-0.4	-2	-2.5	9	8	1.7	4
Cc1ccc(-n2c(C)nn(CC#N)c2=O)cc1	-8	-2.4	-3%	0.2	-8	-3.1	13	16	-1.0	1
Cc1ccccc1Cc1c(C)nc2ncnn2c1C	-9	.	2%	0.7	-2	1.6	.	.	.	28
CN(CCO)CCC(=O)NC1(C)CS(=O)(=O)CC1S(=O)(=O)O (stereo unspecified)	-11	-1.0	5%	1.3	-7	5.0	8	6	-0.2	22
Cc1cc(NC(=O)CSc2nc3c(cc2C#N)CCCCC3)no1	-6	-2.8	.	0.0	10	-2.2	19	17	-0.7	43
Cc1ccccc1NC(=O)CSc1nc(N)c2c3c(sc2n1)CSC(C)(C)C3	-7	.	.	1.1	-6	-6.5	.	.	.	29
COc1ccc(S(=O)(=O)N2CCCC2)cc1C(C)C	20	-3.4	?	0.5	1	5.5	-3	5	-0.5	26
FC(F)Oc1ccc(NC(=S)NCc2ccccc2)cc1Cl	19	.	2%	0.1	3	1.4	.	.	.	-13

Bioassay records (PubChem)
